Mtb bLac sens – beta-lactam sensitization of Mtb H37Rv, H37Rv | M. tuberculosis H37Rv growth with meropenem, percent inhibition; hits of this screen are not shown here | inhibition, % at 25 µM | 0.27% of 330,000 active | AID 434955, 2010;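 active = about 74% or more and at least 40 points above the plate without the antibiotic, then above 30% in a dose series; inconclusive = first-round hits that could not be retested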;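 also: growth measured after seven days incubation then overnight dye step; 0% = bacteria only wells and 100% = bacteria with antibiotic; twin plates without the antibiotic show which effects depend on it; some results filed as inactive read as strong as hits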
The depositor's hits bear a star; ? = inconclusive.

SMILES	Mtb bLac sens
COc1cccc(CNC(=O)CN2C(=O)NC(Cc3ccccc3)(c3ccccc3)C2=O)c1 (stereo not drawn)	0
Cc1cc(Cl)c(C)c(S(=O)(=O)N2CCN(C(=O)C3CCCO3)CC2)c1Cl (stereo not drawn)	-5
O=C(Cc1ccsc1)NCC(=O)Nc1ccccc1Br	3
COc1ccccc1CN1CC(C(=O)N(C)Cc2ccncc2C)CCC1=O (stereo not drawn)	?
CCn1c(SCC(=O)c2c(N)n(C3CC3)c(=O)[nH]c2=O)nnc1-c1ccccc1OC	6
C=CC[C@@H](CC(=O)N(CCO)Cc1ccccc1)C(=O)NCCOC(=O)[C@H](CC=C)CC(=O)OC(C)(C)C	-5
COC(=O)C1=C(c2ccc(OC(F)(F)F)cc2)C[C@@H]2CC[C@H]1N2C(=O)NC1Cc2ccccc2C1	-6
O=C(COC(=O)CC1CC2CCC1C2)Nc1ccc(F)cc1Cl (stereo not drawn)	4
CCCn1c(N)c(C(=O)CSc2nc(C3CC3)n(-c3ccccc3)n2)c(=O)[nH]c1=O	-3
C#CCOCCOCCOCCNc1nc(N2CCN(C(=O)[C@H](CCC(=O)O)n3cc([C@@H](N)CC(N)=O)nn3)CC2)nc(N2CCN(C(=O)[C@H](CCC(=O)O)n3cc([C@@H](N)CC(N)=O)nn3)CC2)n1	5
CC(C)(C)OC(=O)C[C@@H]1C/C=C\C[C@H](CC(=O)NCCO)C(=O)N[C@H](Cc2ccccc2)COC1=O	-1
Cn1cccc1C1CCCN1CC(=O)Nc1c(Cl)cc(Cl)cc1Cl (stereo not drawn)	-9
CCOC(=O)[C@H]1[C@H]2COc3ccc(C)cc3[C@@H]2N2C(=O)c3cc(F)c(F)cc3NC(=O)[C@@]12C	13
CC(=O)CSc1nc2c(c(=O)[nH]c(=O)n2C)n1CCCc1ccccc1	-11
O=C1COc2ccc(C(=O)COC(=O)CNS(=O)(=O)c3cccc(F)c3)cc2N1	-3
CC(C)(C)C(=O)CN1C(=O)NC(C)(Cc2ccc3c(c2)OCO3)C1=O (stereo not drawn)	-1
CN(CC(=O)Nc1cc(Cl)ccc1C#N)C1CCS(=O)(=O)C1 (stereo not drawn)	1
COCCN(C(=O)C1CC(=O)N(Cc2ccc(C)cc2)C1)c1c(N)n(CC(C)C)c(=O)[nH]c1=O (stereo not drawn)	5
CC(=O)Nc1ccc(S(=O)(=O)N(C)CC(=O)NNC(=O)c2cccs2)cc1	5
COc1cccc(/C=N/NC(=O)C(=O)N2CCCCCC2)c1OC	-4

Six structures already listed, sorted by length of the SMILES, lowest first.
SMILES	Mtb bLac sens
COc1cccc(/C=N/NC(=O)C(=O)N2CCCCCC2)c1OC	-4
CN(CC(=O)Nc1cc(Cl)ccc1C#N)C1CCS(=O)(=O)C1 (stereo not drawn)	1
CC(C)(C)C(=O)CN1C(=O)NC(C)(Cc2ccc3c(c2)OCO3)C1=O (stereo not drawn)	-1
COc1cccc(CNC(=O)CN2C(=O)NC(Cc3ccccc3)(c3ccccc3)C2=O)c1 (stereo not drawn)	0
C=CC[C@@H](CC(=O)N(CCO)Cc1ccccc1)C(=O)NCCOC(=O)[C@H](CC=C)CC(=O)OC(C)(C)C	-5
CCOC(=O)[C@H]1[C@H]2COc3ccc(C)cc3[C@@H]2N2C(=O)c3cc(F)c(F)cc3NC(=O)[C@@]12C	13

Next part
SMILES	Mtb bLac sens
CC(=O)N1CCN(C(=O)c2ccc(Cl)c(S(=O)(=O)N3CCCC3)c2)CC1	7
O=C(NCC(=O)N1CCN(c2ncccn2)CC1)c1ccccc1F	-6
N#CCc1nc(C(c2ccccc2)c2ccccc2)no1	-7
OCC[C@H]1C[C@@H](O)[C@H](O)[C@]2(Cc3ccccc3O2)O1	8
Cc1cc(NC(=O)CSc2ncc(C(=O)O)n2-c2ccc(F)cc2)no1	2
O=C(NNC(=O)c1ccccn1)c1ccc(OC(F)F)cc1	92
O=C(Cc1csc(-c2ccc(Cl)cc2)n1)Nc1cccc(S(=O)(=O)NC2=NCCC2)c1	-8
CC(C)CN(C(=O)CN1C(=O)NC2(CCc3ccccc32)C1=O)C1CCS(=O)(=O)C1 (stereo not drawn)	-3
CN(C(=O)CSc1nc(-c2cccs2)nc2ccccc12)C1CCS(=O)(=O)C1 (stereo not drawn)	4
O=C1N(c2ccccc2C(F)(F)F)O[C@]1(c1ccccc1)C1CCCC1	-1
O=C(NC1CCC(O)CC1)c1ccc(NS(=O)(=O)c2cccc([N+](=O)[O-])c2)cc1 (stereo not drawn)	7
CCN(CC(=O)Nc1cc(S(=O)(=O)N2CCOCC2)ccc1Cl)Cc1ccccc1	2
C[C@]12CCC3C(CC[C@H]4C[C@@H](O)[C@H](O)C[C@]34C)C1CC[C@@H]2O (stereo partly drawn)	-2
CS(=O)(=O)c1ccc(C(=O)CN2C(=O)NC3(CCCc4ccccc43)C2=O)cc1 (stereo not drawn)	-3
O=C(COC(=O)CNC(=O)c1ccccc1F)NC1CC1	1
Fc1ccc2cnc(-c3ccccc3)c(-c3ccc(C(F)(F)F)cc3)c2c1	67
CC1CCN(C(=O)c2ccc(NS(=O)(=O)c3ccc4[nH]c(=O)[nH]c4c3)cc2)CC1	1
Cc1cc(NC(=O)COC(=O)c2ccccc2O)no1	-2
CC(C(=O)Nc1ccc(S(=O)(=O)N2CCCC2)cc1)N(C)Cc1ccc(F)cc1 (stereo not drawn)	59
O=S(=O)(c1cc(F)ccc1F)N1CCN(c2ncnc3ccccc23)CC1	-12

The list goes on, overlapping the part above by 4 compounds.
SMILES	Mtb bLac sens
CC1CCN(C(=O)c2ccc(NS(=O)(=O)c3ccc4[nH]c(=O)[nH]c4c3)cc2)CC1	1
Cc1cc(NC(=O)COC(=O)c2ccccc2O)no1	-2
CC(C(=O)Nc1ccc(S(=O)(=O)N2CCCC2)cc1)N(C)Cc1ccc(F)cc1 (stereo not drawn)	59
O=S(=O)(c1cc(F)ccc1F)N1CCN(c2ncnc3ccccc23)CC1	-12
O=C(c1ccco1)N1CCN(Cc2nc3ccccc3[nH]2)CC1	-3
COC(=O)C1=C(c2ccc(F)cc2OCc2ccccc2)C[C@@H]2CC[C@H]1N2C(=O)NCc1ccccc1C(F)(F)F	-6
CC(C)(C)OC(=O)N1CCCC(C(=O)Nc2ccc(C(=O)N3CCOCC3)cc2)C1 (stereo not drawn)	9
O=C(Cn1c(=O)cnc2ccccc21)Nc1cc(Cl)ccc1N1CCOCC1	-5
Cc1ccc(S(=O)(=O)N[C@H](C(=O)OCC(=O)NC(=O)C2CCCCC2)C(C)C)cc1	-3
Cc1n[nH]c(C)c1S(=O)(=O)N1CCN(S(=O)(=O)c2ccccc2C#N)CC1	-10
Cc1cc(Br)ccc1NC(=O)CN(C)C(=O)CN1C(=O)NC(C)(C2CC2)C1=O (stereo not drawn)	-5
COc1cccc(-c2ncc3ccccc3c2COC(=O)c2ccco2)c1	6
COC(=O)CC#N	-9
Cc1nn(-c2ccccc2)c(C)c1C(=O)OC(C)C(=O)Nc1ccc(C(N)=O)cc1 (stereo not drawn)	-4
Cc1ccc(NC(=O)c2oc3ccccc3c2COC(C)C)cc1S(=O)(=O)N1CCOCC1	-2
CCN(CC)CCCCCCCCOC(=O)c1cc(OC)c(OC)c(OC)c1	-3
COc1ccc(C(=O)Cn2c(NCCCO)nc3ccccc32)cc1OC	-9
Cc1cccc(NC(=O)CN2C(=O)NC3(CCCCCCC3)C2=O)c1C	-6
O=C(CN1CCCCCC1)Nc1c(Cl)cc(Cl)cc1Cl	-4
CC(C)c1ccc(NC(=O)CCNC(=O)N2C[C@H]3C[C@@H](C2)c2cccc(=O)n2C3)cc1	-7
CC(C)(C)[C@H]1COC(=O)[C@@H](Cc2ccc(F)cc2)CC/C=C/C[C@@H](CC(=O)N[C@H](CO)Cc2ccccc2)C(=O)N1	3
CSCCC(NC(=O)c1ccccc1)C(=O)Nc1ccncc1 (stereo not drawn)	-1
C#CCOCCOCCOCCNc1nc(N2CCN(C(=O)CCCCCCCCCCNC(=O)[C@H]([C@@H](C)CC)n3cc(CCCCN=C(N)N)nn3)CC2)nc(N2CCN(C(=O)CCCCCCCCCCNC(=O)[C@@H]([C@H](C)O)n3cc(C)nn3)CC2)n1	0
CC(=O)c1cccc(NC(=O)C(C)OC(=O)CCc2nc3ccccc3c(=O)[nH]2)c1 (stereo not drawn)	7
CSc1ccc(CN(C)C(=O)c2cc(Cl)c3c(c2)OCCO3)cc1	-7
Cc1ccc(C(C)C)cc1OCC(=O)Nc1nnc(C2CC2)s1	6
COc1cc(/C=C/C(=O)OCC(=O)N(C)Cc2ccccc2)cc(OC)c1OC	0
Cc1ccccc1-c1nnn(CC(=O)NC(=O)NC2CCCC2)n1	-1
Cc1ccc(S(=O)(=O)N2CCn3cccc3C2C)cc1 (stereo not drawn)	-3
Cc1ccc2nc3n(c(=O)c2c1)-c1ccc(Cl)cc1C(=O)NC3CC(C)C (stereo not drawn)	-2
O=C(COC(=O)c1ccccc1O)NCC1COc2ccccc2O1 (stereo not drawn)	-8
CCOc1ccc(/C=N/NC(=O)c2ccoc2C)cc1OC	-1
NC(=O)c1ccsc1NC(=O)CCc1ccccc1	-9
O=C(CN1C(=O)NC2(CCOc3ccccc32)C1=O)Nc1cccc([N+](=O)[O-])c1 (stereo not drawn)	-6
CN(C)S(=O)(=O)c1ccc(C(=O)OCC(=O)Nc2ccc3c(c2)OCO3)cc1	3
COc1cc2nc(CN3CC=C(c4ccccc4)CC3)[nH]c(=O)c2cc1OC	4
COc1cccc(C(=O)N(C)CC(=O)Nc2cccc3ccccc23)c1	1
Cc1ccc(C)c(N(CC(=O)NC2CCCC2)C(=O)CCC(=O)Nc2nccs2)c1	1
O=C(Cc1ccccc1F)NNC(=O)c1cccs1	1
N[C@@H](Cc1ccc(N(CCCl)CCCl)cc1)C(=O)O	-3
CCN1CCN(c2ccc(NC(=O)c3cc(S(=O)(=O)N4CCCC4)ccc3Cl)cc2)CC1	-3
CCCC[C@@H]1C=C(C(=O)O)[C@H](c2ccc3c(c2)OCO3)N1S(=O)(=O)c1ccc(C)cc1	-6
CCN(Cc1ccc(Cl)s1)C(=O)c1cccc(OCc2c(C)noc2C)c1	5
COc1ccc(NC(=O)COC(=O)CCSc2ccccc2)cc1OC	4

Next part, overlapping the part above by 2 compounds.
SMILES	Mtb bLac sens
CCN(Cc1ccc(Cl)s1)C(=O)c1cccc(OCc2c(C)noc2C)c1	5
COc1ccc(NC(=O)COC(=O)CCSc2ccccc2)cc1OC	4
OCC[C@H]1C[C@H](O)[C@@H](O)[C@@]2(OCc3ccccc32)O1	-12
Cc1ccc(S(=O)(=O)NCCC(=O)Nc2cccc(S(=O)(=O)N3CCCC3)c2)cc1C	-2
O=C(COC(=O)CNC(=O)C1CCCCC1)NCc1ccccc1	1
CC1CCC2(CC1)NC(=O)N(CC(=O)N1CCN(C(=O)c3cccs3)CC1)C2=O (stereo not drawn)	0
O=C(CN1C(=O)NC2(CCOc3ccccc32)C1=O)c1ccc(Cl)s1 (stereo not drawn)	25
c1ccc(CN2CCC3(CCCc4ccccc43)CC2)cc1	99
CCc1sc(C(=O)N2CCc3cc(OC)c(OC)cc3C2CC(=O)O)cc1C (stereo not drawn)	3
CC1CN(C(=O)COC(=O)c2cnc(Cl)c(Cl)c2)CC(C)O1 (stereo not drawn)	-7
O=C(c1cc(-c2ccccc2Cl)nc2ccccc12)N1CCN(c2ccccn2)CC1	-2
O=C(Cc1cccc([N+](=O)[O-])c1)Nc1ccc(C(=O)N2CCCCC2)cc1	12
O=C(CCN1C(=O)CSc2ccccc21)Nc1cccc(C(F)(F)F)c1	-2
Cc1ccc(S(=O)(=O)N2CCCCC2)cc1C(=O)NCCN1CCOCC1	-4
CC(=O)N/C(=C\c1ccccc1)C(=O)OC(C)C(=O)Nc1ccccc1F (stereo not drawn)	6
COc1cc(/C=N/N2CCN(Cc3ccc(C)cc3)CC2)cc(OC)c1O	0
COc1cccc(CN(C)C(=O)CCN=C2NS(=O)(=O)c3ccccc32)c1OC	2
COC(=O)C1=C(C)N(Cc2ccccc2)C(=NCc2cccc(Cl)c2)N[C@H]1c1ccccc1	99
CC1CCC(NC(=O)c2cc(Cl)nc3ccccc23)CC1 (stereo not drawn)	0
CCOc1ccc(C(=O)OCC(=O)NC2CCCCCCC2)cc1	1
CC(C)(C)OC(=O)C[C@@H]1C/C=C\C[C@H](CC(=O)N[C@@H](CO)Cc2ccccc2)C(=O)N[C@H](Cc2ccccc2)COC1=O	-5
CCc1cc(=O)oc2c3c(cc(OCC(=O)NCCCn4ccnc4)c12)OC(C)(C)CC3	-4

Reprinted at random: 2 entries already listed.
SMILES	Mtb bLac sens
CC1CCC2(CC1)NC(=O)N(CC(=O)N1CCN(C(=O)c3cccs3)CC1)C2=O (stereo not drawn)	0
O=C(Cc1cccc([N+](=O)[O-])c1)Nc1ccc(C(=O)N2CCCCC2)cc1	12

Continued.
SMILES	Mtb bLac sens
O=C(COC(=O)/C=C/c1cccc(Cl)c1)NC1CC1	-1
CC(NC(=O)c1ccc(-c2ccccc2)cc1)C(c1ccccc1)N1CCOCC1 (stereo not drawn)	-4
Cc1nc(NC(=O)COC(=O)C(C)NC(=O)c2ccccc2)c(Cl)cc1Cl (stereo not drawn)	-9
COC(=O)C1=C(c2ccc(OC(F)(F)F)cc2)C[C@@H]2CC[C@H]1N2C(=O)NCc1ccc(F)cc1	-6
O=C(NC1CC1)c1cccc2c1C(=O)c1ccc(N3CCC(Cc4ccccc4)CC3)cc1S2(=O)=O	-6
O=C1CN(C(=O)COC(=O)c2cccs2)c2ccccc2N1	8
Cc1cc(Br)ccc1NC(=O)CNC(=O)Cc1ccc(S(=O)(=O)N2CCOCC2)s1	-3
CCCCC[C@@H]1C=C(C(=O)O)[C@H](c2cccc(C)c2)N1S(=O)(=O)c1ccc(C)cc1	6
Cc1ccc(/C=C/C(=O)OCC(=O)NC(=O)NCc2ccccc2)cc1	-3

Only part of the results is shown; count on the stated rates, not on these rows.
